# gsp ag: agonists of gsp mutant (McCune-Albright syndrome) | gsp mutant cells, cAMP HTRF, 30 min; control for the full effect not named in the record | Potency, µM (series often up to 76.9 µM), without a hit: top-dose activation (cAMP increase), hits mostly activators | 340,000 tested, 0.13% active; active = well fitted activation curve with a large enough effect; inconclusive = small, poorly fitted or top-dose-only effect, or another doubt; inactive = no such curve, though single readings can be large or run the other way; cell line not stated here;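 note: phosphodiesterase inhibitor Ro 20-1724 added with compounds to block cAMP breakdown; potency is the fitted concentration of half-maximal effect; nearly all actives have a fitted effect of over 60% in size; about a fifth of the inactives were tested at one dose only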
#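 Cells stably selected in G418 were plated at 2000/well, grown 16-24 hr, then given compounds in DMSO with the PDE inhibitor […] (300 uM solution added) for 30 min at 37C; cAMP was read by HTRF.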
# TRPV1 PAM: human TRPV1 potentiation; AID 540277; Q8NER1; potentiation, % at 8.33 µM; 320,000 tested, 0.02% active; TRPV1-expressing cells, Fluo-8 calcium influx, capsaicin EC20 potentiation; host cell line not named in the record; control for the full effect not named in the record; active means potentiation above 80%; inconclusive means 30% to 80%; inactive means below 30%; note: 0% is about no effect
#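 Cells expressing TRPV1 were dye-loaded with Fluo-8 and read kinetically: 10 s baseline, 3 min after compound (agonist portion), then 2 min after EC20 capsaicin (allosteric enhancer portion). Calcium-bound dye fluorescence at 480/520 nm.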
# D2 PAM: positive allosteric modulators of human D2 dopamine receptor. P14416. DiscoveRx D2 beta-arrestin cells, luminescence, 90 min; 100% = 57 uM dopamine signal. potentiation, % (test concentration not listed). 360,000 tested, 0.23% active. AID 624464; active = potentiation of 50% or more; inconclusive = 30% to 50%; inactive = 30% or less;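 note: compound concentration not given in the record; tested on top of an EC20 dose of dopamine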
# Target sequence (P14416 whole entry, looked up): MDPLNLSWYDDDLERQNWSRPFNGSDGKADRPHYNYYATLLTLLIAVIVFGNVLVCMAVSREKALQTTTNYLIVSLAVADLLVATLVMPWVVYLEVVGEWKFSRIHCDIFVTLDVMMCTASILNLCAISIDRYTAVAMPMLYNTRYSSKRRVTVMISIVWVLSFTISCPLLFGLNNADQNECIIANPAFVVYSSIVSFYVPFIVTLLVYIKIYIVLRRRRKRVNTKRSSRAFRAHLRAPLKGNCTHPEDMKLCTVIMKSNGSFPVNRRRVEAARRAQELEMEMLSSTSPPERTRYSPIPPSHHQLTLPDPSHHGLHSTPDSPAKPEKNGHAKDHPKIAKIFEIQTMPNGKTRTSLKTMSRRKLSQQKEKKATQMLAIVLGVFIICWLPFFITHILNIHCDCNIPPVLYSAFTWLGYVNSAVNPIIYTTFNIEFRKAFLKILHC
#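 D2 cells co-treated with compound plus 50 nM dopamine (EC20) for 90 min at 37 deg C to detect potentiation. Beta-arrestin recruitment was read as enzyme-fragment luminescence after 1 h at ambient temperature. Full response was set by 57 uM dopamine.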
# Sfp PPTase inh: Sfp phosphopantetheinyl transferase inhibition | Potency, µM, inactives show max response, negative = inhibition, usual class: inhibitors | Q9F4F7 | 310,000 tested, 3.5% active | Biochemical Sfp PPTase activity, qHTS; active = well fitted inhibition curve with a large enough effect; inconclusive = small, poorly fitted or top-dose-only effect, or another doubt; inactive = no such curve, though single readings can be large or run the other way;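 note: the enzyme is Sfp with the accession as filed and its product quenches rhodamine fluorescence; potency is the fitted concentration of half-maximal effect; 0% = enzyme reaction without inhibitor and -100% = no enzyme wells; top concentration of the series not given in the record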
#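 Compounds were incubated with enzyme (final 15 nM) for 15 min at room temperature before substrate addition started the reaction. Fluorescence at 525 nm excitation, 598 nm emission was recorded immediately and after 30 minutes.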
# gsp antagonist: antagonists of gsp mutant (McCune-Albright syndrome) | gsp-mutant cells, cAMP HTRF, 30 min; control for the full effect not named in the record | Potency, µM (titrated, usually from 76.9 µM), inactives show top-dose activity change, negative = inhibition, usual class: inhibitors | 340,000 tested, 0.4% active; active = falling curve of any shape with a large fitted effect; inconclusive = falling curve, mostly with a smaller effect; inactive = flat or rising curve; cell line not stated here;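 note: intracellular cAMP measured with PDE inhibitor Ro 20-1724 present during compound exposure; potency is the fitted concentration of half-maximal effect; % is set by controls: 0 for no effect and ±100 for the full control effect; nearly all actives have a fitted effect of over 65% in size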
#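 Cells in G418 medium, seeded 16-24 h, 37C; buffer exchange to DPBS + 1 mM CaCl2, 0.5 mM MgCl2, 0.05% BSA; cpds in DMSO + […] (300 uM stock), 30 min 37C; HTRF cAMP detection.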
# ClpP mod: qHTS Assay for Activators of ClpP; ATP-dependent Clp protease proteolytic subunit (Bacillus subtilis (strain 168)), P80244; purified B. subtilis ClpP, FRET peptide cleavage, 20 min; Potency, µM (series often up to 57.5 µM), inactives show at the top dose activity change, negative = active; 340,000 tested, 1.9% active; active = well fitted falling curve with a large enough effect; inconclusive = small, poorly fitted or top-dose-only effect; inactive = no such curve, though single readings can be large or run the other way; note: potency is the fitted concentration of half-maximal effect; the source files actives as falling curves though it sought activators and does not explain the sign; nearly all actives have a fitted effect of over 65% in size; many hits overshoot -100%
# Target sequence (P80244 whole entry, looked up): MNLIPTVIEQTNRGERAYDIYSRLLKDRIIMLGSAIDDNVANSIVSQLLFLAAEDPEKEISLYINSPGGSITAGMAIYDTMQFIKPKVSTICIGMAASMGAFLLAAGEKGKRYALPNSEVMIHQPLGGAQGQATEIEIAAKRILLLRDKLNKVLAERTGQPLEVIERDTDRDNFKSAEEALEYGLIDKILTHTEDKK
#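 FRET quenching reversal measured ClpP activation: 10 microg/mL B. subtilis ClpP at pH 8 with the FRET-FV decapeptide, read at 430 nm after 320 nm excitation. The 20-min minus 0-min signal was scaled between DMSO/no-enzyme wells and ADEP (5.8 microM final).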
# Menin MLL FP FL: menin-MLL binding inhibition, fluorescein peptide | Fluorescence polarization, fluorescein-MLL peptide displacement from menin | AID 1766 | 290,000 tested, under 10 active | FP activity change, % at 61.4 µM; inconclusive = falling polarisation curve, or a change in total fluorescence; inactive = total fluorescence flat and polarisation flat or rising; no compound was filed as active; the % refers to the polarisation; negative = inhibition;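 note: % of control where 0% means no effect; inhibitors lower the polarisation; unlabelled MLL peptide was the positive control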
# Numbers without * were called inactive; ? = inconclusive; . = not tested or not shown; & = joins results of further samples; [ ] = dose if it differs, or a comment.
SMILES,gsp ag,TRPV1 PAM,D2 PAM,Sfp PPTase inh,gsp antagonist,ClpP mod,Menin MLL FP FL
C#CCOCCOCCOCCNc1nc(N2CCN(C(=O)CCCCCCCCCCNC(=O)[C@@H](CCC(=O)O)n3cc(CCCCCN)nn3)CC2)nc(N2CCN(C(=O)CCCCCCCCCCNC(=O)[C@H]([C@@H](C)CC)n3cc(CCCCCN)nn3)CC2)n1,.,?,-5.5,.,-6.6%,1.1%,.
Cc1cccc(C(=O)OCC(=O)c2ccc(CC(=O)N3CCOCC3)s2)c1C,-0.7%,-11.4,0.7,.,-1.3%,-2.2%,.
CCCn1nnnc1SCC(=O)Nc1nnc(CC)s1,25.7%,-0.1,-8.6,-5.0%,-5.2%,1.1%,0.0
CCOCCCNC(=O)CN1C(=O)CSc2cc(S(=O)(=O)N3CCCCCC3)ccc21,-3.7%,8.0,-9.1,6.1%,-8.7%,-1.1%,4.8
O=[N+]([O-])c1cccc(S(=O)(=O)[N-]c2nc3ccccc3nc2-n2cc[n+](Cc3ccccc3)c2)c1,-22.0%[15.4 µM],6.0,-15.6,-0.2%,-5.4%,-4.0%,2.5
COc1ccc(-c2noc(CNS(=O)(=O)c3ccc(NC(C)=O)cc3)n2)cc1OC,-3.6%,5.1,-2.6,11.8%,0.5%,-0.2%,.
Cc1ccc(-c2nn(-c3ccccc3)cc2/C=N/NC(=O)c2ccncc2)o1,-25.2%,-12.3,5.4,12.6%,?,.,-1.5
CCOc1ccccc1OCCCC(=O)Nc1cc(S(=O)(=O)N2CCCCC2)ccc1C,-19.2%,.,-19.4,.,.,0.6%,.
C[C@@H]1C=C(C(=O)N2CCOCC2)O[C@H](OCc2ccc(CO)cc2)C1,.,18.3,-1.1,-6.5%,1.8%,0.4%,-2.6
O=C(O)Cc1ccc(O)c(F)c1,.,-5.6,2.9,18.0%,4.1%,1.1%,-3.5
C/C(=N\NC(=O)c1cccc(S(=O)(=O)N2CCCC2)c1)c1ccc(OCC(=O)N(C)C)cc1,-3.1%[15.4 µM],-0.7,6.9,.,-3.5%,.,.
COc1cc(/C=N/NC(=O)c2cccnc2)ccc1OC(=O)c1cccc(Br)c1,10.2%,7.5,11.0,9.7%,-9.6%,27.0%,.
O=c1cc(Cl)c(-c2ccccc2)n[nH]1,8.4%,4.4,-0.5,8.3%,-6.5%,-1.5%,1.0
CCN1CCCC1CNC(=O)C1CCCN(S(=O)(=O)c2cccc3nsnc23)C1 (stereo not given),?,4.0,-25.6,14.3%,2.3%,0.6%,-0.4
Cc1ccc(NC(=O)c2ccccc2)s1,-36.1%[inhibitor],-10.3,-13.5,-29.7%,3.1%,-1.5%,-0.7
COc1cc(C(=O)NCCCN2CCCC2=O)ccc1OCc1ccc(Cl)cc1Cl,-3.0%,6.6,?,.,8.1%,1.5%,.
Cc1ccc(NC(=S)NCC2CCCO2)cc1C (stereo not given),-36.9%[inhibitor],-2.9,-13.4,6.1%,-1.7%,1.6%,-3.1
CC(=O)c1ccc(NS(=O)(=O)c2ccccc2)cc1,13.5%,4.9,-8.1,8.2%,-2.3%,-20.5%,4.8
Cc1c(C)c2ccc(OCC(=O)NC(Cc3ccc(Cl)cc3)C(=O)O)cc2oc1=O (stereo not given),.,1.6,-8.7,14.3%,1.9%,4.5%,-3.0
COc1ccc(-n2c(SCC(=O)NCC3CCCO3)nc3c(c2=O)SCC3)cc1OC (stereo not given),?,2.6,2.5,6.8%,7.8%,1.0%,.
Clc1cccc(Cl)c1COc1ccccn1,-16.4%,-1.6,-4.2,10.6%,-5.4%,-0.2%,1.6
O=C(CN1CCc2ccccc21)NC(c1ccccc1)c1ccccc1,-6.2%,-4.1,-6.6,6.3%,1.3%,-12.4%,1.5
CCN(CC(=O)Nc1ccc2c(c1)OCCO2)C(=O)/C=C/c1cc(Br)ccc1OC,-11.5%,.,-18.1,.,.,-9.9%,.
O=C(OCc1cn(Cc2ccccc2)nn1)c1ccccc1,-8.1%,-21.1,-6.0,-7.8%,7.2%,-2.3%,2.0
CCOc1cc(C(=O)N/N=C/c2cn(-c3ccccc3)nc2-c2cc3ccccc3o2)cc(OCC)c1OCC,-5.1%,.,-3.1,.,-3.7%,-0.6%,.
C/C(=N/OCC(=O)Nc1ccccc1)c1cccs1,4.5%,-4.9,-26.3,4.5%,-6.5%,-2.6%,4.8
CN1/C(=C/C=C/c2n(C)c3cc([N+](=O)[O-])c([N+](=O)[O-])cc3[n+]2C)C(C)(C)c2ccccc21,-30.7%[inhibitor],.,-54.2,.,.,2.7%,.
COc1cccc(C(=O)CSc2nnnn2C2CCCCC2)c1,-20.9%,-15.4,-5.8,-25.3%,4.6%,-7.6%,0.3
Cc1ccccc1C(=O)NC1CCN(CC(=O)Nc2ccc3c(c2)OCCO3)CC1,-13.0%,-2.8,-14.3,7.3%,4.4%,0.3%,-3.2
CCCCC1=CC2=CC(=O)C(C)(OC(=O)CC)C(=O)C2=CN1CCCOC(C)C (stereo not given),.,-10.3,13.6,21.6%&6.5%,-0.2%,-2.1%,-4.6[11.7 µM]
CCCC1NC(=O)c2cccnc2-n2c1nc1ccc(C)cc1c2=O (stereo not given),-36.2%,.,-4.1,.,.,-2.0%,.
CCc1cccc(NC(=O)COc2ccccc2)c1,5.2%,-10.7,-15.3,6.0%,-2.9%,0.6%,0.9
c1sc2[n+](c1C13CC4CC(CC(C4)C1)C3)CCS2,0.1%,3.1,-8.9,-17.9%,9.2%,-2.7%,-4.8
CCOC(=O)[C@H]1[C@H]2COc3ccc(Cl)cc3[C@@H]2N2C(=O)CN(Cc3ccco3)C(=O)[C@@]12C,-12.9%,-14.1,0.8,.,-0.7%,-5.6%,.
CCn1ccnc1CN(C)Cc1nc(CCC(C)C)no1,0.1%,-6.9,-3.0,3.4%,5.5%,.,0.1
O=S(=O)(NCCc1nnc2ccc(SCc3cccnc3)nn12)c1ccccc1,?,5.2,-5.2,19.6%,-7.2%,0.1%,-3.5
CC(=O)Nc1c(-c2ccccc2)c2cc(Br)ccc2[nH]c1=O,4.6%,-8.8,-4.5,19.6%,-4.7%,-0.9%,-4.3
COC(=O)c1c(NC(=O)CN(c2ccccc2)S(C)(=O)=O)sc2c1CCCC2,6.1%,-8.5,-24.9,-17.8%,-24.1%,?,2.7
Cc1c(Cl)cccc1NC(=O)CCCN1C(=O)c2cccnc2C1=O,20.6%[15.4 µM],0.7,6.5,20.4%,12.4%,.,2.0
N#C/C(=N\Nc1cccc(F)c1)C(=O)C1CC1,0.5%,24.8,0.1,4.1%,2.2%,-0.4%,1.3
CCOC(=O)N1CCC(N2C(=O)c3ccc(C(=O)NCCOC)cc3C2=O)CC1,?,3.9,-5.4,15.0%,3.9%,-0.3%,4.5
O=C(O)CSc1nnc(SCc2cccc3ccccc23)s1,2.0%,5.8,-2.2,19.0%,-14.3%,-1.2%,-0.5
N/C(=C/C(=O)c1ccccc1O)C(F)(F)F,5.3%,1.6,-20.5,8.4%,13.9%,1.4%,-0.8
Cc1ccc(NC(=O)Cn2nc(C)c([N+](=O)[O-])c2C)cc1C,?,14.0,-2.1,-10.5%,-0.9%,.,3.2
COc1ccc(-c2ccoc2)cc1[C@H]1[C@H]2C=CC[C@@H](C)[C@@H]2C(=O)N1Cc1ccccc1,.,-11.5,-11.0,-11.5%,-14.1%,?,5.9
CCOc1ccccc1NC(=O)CCSc1nc2n[nH]c(C)c2c(=N)n1-c1ccccc1Cl,3.1%,0.8,-5.2,?,3.1%,-22.5%,4.9
CC(=NCc1ccco1)c1c(C)[nH]n(-c2nc3ccccc3s2)c1=O,?,-15.8,11.5,7.3%,14.0%,-110.3%,2.9
O=c1[nH]c(COc2ccc(Cl)cc2Br)nc2ccccc12,23.2%,0.6,-11.6,17.2%,-7.7%,4.8%,.
O=C(COc1ccc2c(-c3ccccc3)cc(=O)oc2c1)Nc1ccc(CCO)cc1,-0.1%,-10.7,1.6,-4.6%,-11.7%,-29.0%,0.9
CCOc1nc(NC(=O)NC(=O)c2ccccc2)nc(-c2ccccc2)n1,-8.8%[15.4 µM],-11.9,-7.9,8.5%,-12.4%,-4.2%,-2.1

# Additional results follow.
SMILES,gsp ag,TRPV1 PAM,D2 PAM,Sfp PPTase inh,gsp antagonist,ClpP mod,Menin MLL FP FL
CC(NC(=O)Cc1ccc(F)cc1)C(c1cccs1)N1CCN(C)CC1 (stereo not given),-0.5%,23.1,3.3,9.2%,3.9%,-1.9%,2.3
Cc1cccc(N=C2NN=C(c3c(C)[nH]c4ccccc34)CS2)c1,2.2%,11.9,18.3,39.8µM*,-20.2%,17.8µM*,2.9
COc1cc(C2C(C#N)=C(N)OC3=C2C(=O)CC(C)(C)C3)cc([N+](=O)[O-])c1O (stereo not given),?,.,-21.2,11.8%,-29.4%,-3.1%,1.4
Cc1ccc(SCC(=O)Nc2ccc(N3CCN(C)CC3)c(F)c2)c(C)c1,-0.4%,2.8,57.4*,5.3%,5.1%,-0.8%,-0.8
COc1cc2c(cc1OC)C(C)N(C(=O)CCc1c[nH]c3ccccc13)CC2 (stereo not given),16.5%,24.3,-3.8,1.2%,8.4%,.,-8.6
CCCN(C(=O)CSc1ccccc1C(=O)O)C1CCS(=O)(=O)C1 (stereo not given),0.5%,.,-4.2,.,11.5%,1.1%,.
CC(C)C(NC(=O)c1ccccc1)C(=O)NCC(c1ccccc1)N(C)C (stereo not given),-1.9%[15.4 µM],0.6,-10.8,10.9%,-8.3%,.,-2.4
O=C(C1CC2C=CC1C2)N1CCN(c2ccccc2)CC1 (stereo not given),-0.6%,-4.7,8.2,1.8%,-0.3%,2.3%,-3.9
Cc1ccc(-c2nnc(Nc3ccc(C(=O)N(C)C)cc3)c3ccccc23)cc1S(=O)(=O)NCC1CCCO1 (stereo not given),25.5%,12.8,-23.7,7.6%,-29.2%,-1.3%,2.9
NS(=O)(=O)c1cc(Cl)c(NC(=O)COC(=O)c2ccccn2)c(Cl)c1,-35.4%[inhibitor],6.7,-1.9,.,13.7%,-0.2%,.
C=CCOC1=CS(=O)(=O)N(Cc2ccc(Br)cc2)c2ccc(Br)cc21,.,.,-4.2,.,-24.0%,-2.0%,.
O=[N+]([O-])c1ccc(OCCN2CCNCC2)cc1,?,-20.4,-7.1,?,5.7%,-0.2%,-4.1
Cn1nnnc1NC(=O)c1ccccc1Cl,4.4%,10.9,0.9,-15.6%,6.0%,2.0%,5.5

# Screens as filed in PubChem BioAssay.
